Arbovirus anti = arbovirus infection inhibition; arbovirus infection cell-based antiviral screen; inhibition, % at 10 µM; 0.37% of 200,000 active; AID 1251;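 active means inhibition from about 30%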;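 further: bluetongue infection of BSR cells; cell survival read as ATP light after 72 h; 0% = infected wells without compound and 100% = uninfected wells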
Mtb betalactam = beta-lactam sensitization of Mtb H37Rv. M. tuberculosis H37Rv growth with meropenem, percent inhibition; hits of this screen are not shown here. inhibition, % at 25 µM. 0.27% of 330,000 active;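 active means about 74% or more and at least 40 points above the plate without the antibiotic, then above 30% in a dose series; inconclusive means first-round hits that could not be retested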;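 further: growth measured after seven days incubation then overnight dye step; 0% = bacteria only wells and 100% = bacteria with antibiotic; twin plates without the antibiotic show which effects depend on it; some results filed as inactive read as strong as hits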
YopH PTP inh = YopH (Yersinia) phosphatase inhibition | fluorescence Ex485/Em525 | inhibition, %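 (about 10 µM by stock and volumes)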 | 0.16% of 140,000 active | AID 898;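 active means inhibition of 50% or more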;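 further: controls were vehicle for no effect and minimum signal wells for full effect; inactives centre near -20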
RecA intein inh = inhibitors of M. tuberculosis RecA intein splicing; P9WHJ3; AID 2221; cell-free RecA intein splicing, fluorescence; 0.75% of 290,000 active; inhibition, %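 (about 9 µM by stock and volumes)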; in the data active means inhibition above about 30%; inconclusive means no clear call, values can overlap the other calls;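 further: 0% = vehicle wells and 100% = reference inhibitor control wells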
Target sequence (P9WHJ3 whole entry, looked up): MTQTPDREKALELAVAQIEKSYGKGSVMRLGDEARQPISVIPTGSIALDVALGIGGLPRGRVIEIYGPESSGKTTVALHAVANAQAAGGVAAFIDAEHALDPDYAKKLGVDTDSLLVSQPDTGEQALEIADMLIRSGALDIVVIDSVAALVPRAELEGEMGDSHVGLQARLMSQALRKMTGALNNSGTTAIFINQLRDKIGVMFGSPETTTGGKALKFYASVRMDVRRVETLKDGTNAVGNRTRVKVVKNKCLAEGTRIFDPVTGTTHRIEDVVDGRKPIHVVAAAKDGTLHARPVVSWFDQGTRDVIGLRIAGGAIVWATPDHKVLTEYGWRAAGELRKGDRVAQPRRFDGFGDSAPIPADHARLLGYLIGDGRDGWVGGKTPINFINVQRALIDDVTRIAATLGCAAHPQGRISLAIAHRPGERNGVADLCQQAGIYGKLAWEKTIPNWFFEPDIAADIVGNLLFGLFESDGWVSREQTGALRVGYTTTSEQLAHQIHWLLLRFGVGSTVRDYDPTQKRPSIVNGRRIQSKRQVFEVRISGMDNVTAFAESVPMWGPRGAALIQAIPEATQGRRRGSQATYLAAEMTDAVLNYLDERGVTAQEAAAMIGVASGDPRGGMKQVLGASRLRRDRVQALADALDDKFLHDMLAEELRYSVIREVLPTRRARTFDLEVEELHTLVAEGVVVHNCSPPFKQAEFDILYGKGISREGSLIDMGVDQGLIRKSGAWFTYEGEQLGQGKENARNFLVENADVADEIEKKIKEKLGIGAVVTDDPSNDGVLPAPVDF
Mtb H37Rv = M. tuberculosis H37Rv growth inhibitors, H37Rv strain (AID 1626). M. tuberculosis H37Rv growth inhibition; higher % means a stronger effect. inhibition, % at 10 µM, or IC50 in µM where a hit was titrated. 0.95% of 220,000 active;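 active means confirmed in a dose series; inconclusive means inhibition above 80% but not taken into the dose series; inactive means below 80% or under 30% at every dose of the series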;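 further: bacteria incubated seven days before Alamar blue readout; 0% = bacteria only wells and 100% = bacteria with antibiotic wells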
Arbovirus anti repeat = further read-out of Arbovirus anti, marked with its call; inhibition, %; measured here: 10K subset replicate screen; many hits read low in the repeat;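 first of two repeat runs on a subset; 0% = infected and 100% = uninfected wells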
Active calls of the source: *; ? = inconclusive; . = no result given.

SMILES	Arbovirus anti	Mtb betalactam	YopH PTP inh	RecA intein inh	Mtb H37Rv	others
CC(C)NC(=O)c1nn2c(C(F)(F)F)cc(-c3ccco3)nc2c1Cl	1	2	.	-4.5	-14%
COc1ccccc1CN=C1NC(=O)C(CC(=O)Nc2ccc(C(C)=O)cc2)S1 (stereo not drawn)	.	3	.	-0.9	-7%
Oc1ccccc1/C=N/NC(=S)NC1CC2CCC1C2 (stereo not drawn)	.	98	.	1.9	?
O=C(NCc1cccnc1)NC1CC(=O)N(c2ccc3c(c2)OCCO3)C1 (stereo not drawn)	19	-6	.	-3.4	-8%
Cc1ccc(NC(=O)C2CC(=O)Nc3nncn32)cc1 (stereo not drawn)	0	3	.	-0.4	-5%
Cc1ccc(NS(C)(=O)=O)c(C(=O)c2ccccc2)c1	-4	4	-10	0.0	-5%
CCCn1nnnc1NC(=O)c1cc(Br)ccc1OC	-1	72	.	1.3	3%
Cc1cc(N/N=C/c2ccc(Cl)cc2Cl)nc(NCc2ccccc2)n1	-22	93	-29	-1.3	45%
CCCC(C(=O)NC(C)(C)CC)N(CC1CCCO1)C(=O)CNS(=O)(=O)c1ccc(F)cc1 (stereo not drawn)	.	-4	.	3.2	.
COC(=O)CSc1nnc([C@H](Cc2ccccc2)NC(=O)OC(C)(C)C)o1	7	100	-30	0.4	45%
COCCn1c(=O)[nH]c2cc(C(=O)Nc3nnc(C)s3)ccc21	.	4	.	-1.4	.
CCN1CCN(C(=S)Nc2ccc(C(C)=O)cc2)CC1	3	-3	.	-1.2	-1%
CCCCC(=O)NC(NC(=S)N1CCOCC1)C(Cl)(Cl)Cl (stereo not drawn)	3	-9	-10	-4.4	-1%
CCn1nnnc1SCC(=O)N1c2ccccc2Sc2ccccc21	-10	88	-3	5.9	2%
COc1ccc(C(=O)COC(=O)C2CC3CCCC(C2)C3=O)cc1Br (stereo not drawn)	.	2	.	5.1	.
COc1ccc(NC(=O)C2CCCN(c3c4c(nc5ncnn35)CCC4)C2)cc1OC (stereo not drawn)	-3	-7	-28	1.6	-1%
CCc1ccc(NC(=O)Nc2ccncc2)cc1	18	3	.	1.2	9%
O=S(=O)(/N=C/c1ccccc1O)c1cccs1	5	4	-40	-3.8	-7%
CC1(C)CC(=O)C2=C(C1)N1C(=C(C#N)C2c2ccc(Cl)cc2)N=C(N)c2ccccc21 (stereo not drawn)	-28	-5	-22	5.3	.
COc1cc(OC)c(NC2=CC(=O)C(=O)c3ccccc32)cc1Cl	.	0	.	-1.2	.
COc1ccc(S(=O)(=O)NCc2ccco2)cc1-c1nnc2c3ccccc3c(C)nn12	-5	-7	-22	-7.1	-3%
O=C(OCc1ccc(Cl)c(Cl)c1)c1cnccn1	6	78	6	1.4	35%
CCOC(=O)[C@@H]1[C@H]2COc3ccccc3[C@H]2N2C(=O)N(c3cccc(F)c3)C(=O)[C@]12C	.	1	.	-1.2	.
O=C(O)CCN1C(=O)/C(=C\c2ccncc2)SC1=S	2	40	.	0.4	5%
Nc1c(C(=O)Nc2ccccc2)sc2ncc([N+](=O)[O-])cc12	.	-1	.	-0.9	-2%
O=C(Nc1ccc(-c2nc3ccccc3[nH]2)cc1)c1ccccc1NS(=O)(=O)c1ccc(F)cc1	-2	6	-20	25	3%
CC(C)(C)c1ccc(-c2noc(CCC(=O)NCC3CCCO3)n2)cc1 (stereo not drawn)	7	49	-15	1.2	4%
COc1ccc(OC)c2c1sc(=NC(=O)C1CCCCC1)n2C	.	22	.	3.2	-10%
CCCn1c(=S)[nH]c2cc(C(=O)N3CCc4ccccc4C3)ccc2c1=O	-3	-2	.	0.4	-3%
CCOc1ccc(C(=O)CCC(=O)NC2=NCCS2)cc1	.	-14	.	2.9	.
CCc1c(C#N)c(N)nc(SCC(=O)OCc2ccccc2)c1C#N	0	4	13	-0.9	>100µM*
CCN(CC)CCN=Cc1c(O)n(C2CCCCCC2)c(=O)[nH]c1=O	7	-6	-40	18	-8%
Cc1ccc(Nc2nnc(SCC(=O)N(C)C3CCS(=O)(=O)C3)s2)cc1 (stereo not drawn)	5	-5	.	-2.9	-5%
Cc1cc(C)n2nc(S(=O)(=O)NCCc3ccccc3)nc2n1	8	-4	-46	-2.9	-5%	Arbovirus anti repeat=3
N#CC(C(=O)c1ccccc1Cl)=C1SCCCS1	.	-4	.	13	-5%
Cc1cccc(/C=N/NC(=O)NC2CCCCC2)c1	-3	?	-11	0.1	8%
Cc1ccc(NC(=O)N(C2=NCC(C)S2)c2ccccc2)cc1 (stereo not drawn)	.	9	-20	-2.8	1%
COc1cc2[nH]c(=S)n(NC(=O)c3ccccc3)c(=O)c2cc1OC	9	1	-30	0.8	6%
COc1ccc(S(=O)(=O)Nc2ccc3c(c2)OCCO3)cc1Cl	10	-7	-5	1.3	0%
COc1ccc2[nH]c3c(c2c1)CCN[C@H]3C	.	7	.	-4.4	.
O=C(Cn1nnc2ccccc21)N/N=C\c1cccs1	3	7	-14	0.3	1%
CS(=O)(=O)c1ccc(Cl)c(NC(=O)C2CCCN(C(=O)c3ccc(Cl)cc3)C2)c1 (stereo not drawn)	.	3	.	0.2	.
O=C(c1ccccc1)N1CCN(C(=O)C2CC2)CC1	.	3	.	-2.2	.
O=C(NCCN=C1NS(=O)(=O)c2ccccc21)c1ccco1	7	4	-25	-2.1	-2%
CC(=O)C1=C(O)C(=O)N(Cc2ccco2)C1c1ccc(F)cc1 (stereo not drawn)	5	7	-60	0.0	8%
CCCCn1c(N)c(N(Cc2ccccc2OC)C(=O)c2sccc2C)c(=O)[nH]c1=O	.	-12	.	1.0	.
CCOC(=O)c1c(NC(=O)COc2ccccc2F)sc2c1CC(C)(C)NC2(C)C	.	99	.	0.7	.
Cc1c(C(=O)OC/C(O)=C(\C#N)c2nc3ccccc3[nH]2)oc2ccccc12	.	1	.	3.1	.
Cn1c(=O)c2ncn(CC(=O)Nc3ccc4c5c(cccc35)CC4)c2n(C)c1=O	-7	-2	-14	1.6	-3%
CN(C)c1ccnc(Oc2ccc(F)cc2)c1C#N	-4	2	-20	-2.3	2%
C/C(CC(=O)Nc1ccccc1C)=N\NC(=O)Cc1csc(N)n1	-6	51	-24	1.5	-9%
Cc1ccc(C)c(N2N=C(C(=O)N(CC(C)C)c3c(N)n(Cc4ccccc4)c(=O)[nH]c3=O)CCC2=O)c1	.	-5	.	1.7	.
O=C(O)CCCN1C(=O)/C(=C\c2ccc(-c3nc4ccccc4s3)o2)SC1=S	.	.	.	-34	3%
CCN(CC)S(=O)(=O)c1ccc(C(=O)Nc2cc3oc4ccccc4c3cc2OC)cc1	-8	-4	-21	-2.8	1%
COCC1CCCN(C(=O)c2ccc3oc(C(C)C)nc3c2)C1 (stereo not drawn)	.	1	.	2.3	.
COC(=O)C1=C(CN2CCCc3ccccc32)NC(=O)NC1c1ccc(F)cc1 (stereo not drawn)	7	8	-17	2.1	-10%
CCOc1ccc(-c2cc(CCCC(=O)NCCc3ccc(OC)c(OC)c3OC)no2)cc1	-3	-3	-26	-0.4	-1%
COc1ccc(-c2csc(NC(=O)CSc3nnnn3C)n2)cc1OC	.	-3	.	-1.5	.
O=C(Nc1cnc2ccccc2c1)N1CCCCC1	5	-11	-33	0.6	1%
COc1cc2c(cc1OC)CN(c1nc(CN3CCCCC3)nc3sc4c(c13)CCCC4)CC2	-22	95	-14	7.5	5%

Sorted by SMILES length (rising): 17 of the compounds above.
SMILES	Arbovirus anti	Mtb betalactam	YopH PTP inh	RecA intein inh	Mtb H37Rv	others
O=C(Nc1cnc2ccccc2c1)N1CCCCC1	5	-11	-33	0.6	1%
CN(C)c1ccnc(Oc2ccc(F)cc2)c1C#N	-4	2	-20	-2.3	2%
COc1ccc2[nH]c3c(c2c1)CCN[C@H]3C	.	7	.	-4.4	.
O=C(Cn1nnc2ccccc21)N/N=C\c1cccs1	3	7	-14	0.3	1%
O=C(c1ccccc1)N1CCN(C(=O)C2CC2)CC1	.	3	.	-2.2	.
COCC1CCCN(C(=O)c2ccc3oc(C(C)C)nc3c2)C1 (stereo not drawn)	.	1	.	2.3	.
COc1ccc(-c2csc(NC(=O)CSc3nnnn3C)n2)cc1OC	.	-3	.	-1.5	.
C/C(CC(=O)Nc1ccccc1C)=N\NC(=O)Cc1csc(N)n1	-6	51	-24	1.5	-9%
CC(=O)C1=C(O)C(=O)N(Cc2ccco2)C1c1ccc(F)cc1 (stereo not drawn)	5	7	-60	0.0	8%
COC(=O)C1=C(CN2CCCc3ccccc32)NC(=O)NC1c1ccc(F)cc1 (stereo not drawn)	7	8	-17	2.1	-10%
CCOC(=O)c1c(NC(=O)COc2ccccc2F)sc2c1CC(C)(C)NC2(C)C	.	99	.	0.7	.
O=C(O)CCCN1C(=O)/C(=C\c2ccc(-c3nc4ccccc4s3)o2)SC1=S	.	.	.	-34	3%
Cn1c(=O)c2ncn(CC(=O)Nc3ccc4c5c(cccc35)CC4)c2n(C)c1=O	-7	-2	-14	1.6	-3%
CCCCn1c(N)c(N(Cc2ccccc2OC)C(=O)c2sccc2C)c(=O)[nH]c1=O	.	-12	.	1.0	.
COc1cc2c(cc1OC)CN(c1nc(CN3CCCCC3)nc3sc4c(c13)CCCC4)CC2	-22	95	-14	7.5	5%
CS(=O)(=O)c1ccc(Cl)c(NC(=O)C2CCCN(C(=O)c3ccc(Cl)cc3)C2)c1 (stereo not drawn)	.	3	.	0.2	.
Cc1ccc(C)c(N2N=C(C(=O)N(CC(C)C)c3c(N)n(Cc4ccccc4)c(=O)[nH]c3=O)CCC2=O)c1	.	-5	.	1.7	.

Further structures follow.
SMILES	Arbovirus anti	Mtb betalactam	YopH PTP inh	RecA intein inh	Mtb H37Rv	others
Cc1nc(SCC(=O)Nc2c(C)n(C)n(-c3ccccc3)c2=O)n[nH]1	-4	-4	8	-0.4	-4%
COc1cc(/C=C2\SC(=S)N(c3cccnc3)C2=O)ccc1O	.	2	.	-3.0	2%
CN(c1ccc(F)cc1)S(=O)(=O)c1ccc(Cl)c(C(=O)Nc2ccc3c(c2)CCC3)c1	14	-1	-39	4.3	-11%
CC(=O)OC1c2ccccc2C(=O)N1Cc1ccccc1 (stereo not drawn)	-1	6	-38	-3.0	-5%
O=c1[nH]cc(C(F)(F)F)cc1NS(=O)(=O)c1ccc([N+](=O)[O-])cc1	11	13	.	-4.2	3%
CCCCC1(CCCC)C(=O)NC(=Nc2cccc(C)c2)NC1=O	-16	-1	-10	6.1	2%
CCCCNC(=O)C1CCN(Cc2ccc(OCc3ccccc3)cc2)CC1	-35	35	-14	0.6	-2%
N#Cc1ccccc1OCC(=O)NCC(c1cccs1)N1CCOCC1 (stereo not drawn)	.	-5	.	-0.5	.

The list is partial. The share of hits here may be higher or lower than overall.
